VDR inh: vitamin D3 receptor (human) inhibition | P11473 | VDR-SRC2-3 peptide fluorescence polarization, 2 h | Potency, µM, without a hit: max response, negative = inhibition, most hits filed as inhibitors | hit rate 0.93% among 400,000 | AID 504847; active = well fitted inhibition curve with a large enough effect; inconclusive = small, poorly fitted or top-dose-only effect, or another doubt; inactive = no such curve, though single readings can be large or run the other way; also: series mostly up to about 120 µM
Target sequence (P11473 whole entry, looked up): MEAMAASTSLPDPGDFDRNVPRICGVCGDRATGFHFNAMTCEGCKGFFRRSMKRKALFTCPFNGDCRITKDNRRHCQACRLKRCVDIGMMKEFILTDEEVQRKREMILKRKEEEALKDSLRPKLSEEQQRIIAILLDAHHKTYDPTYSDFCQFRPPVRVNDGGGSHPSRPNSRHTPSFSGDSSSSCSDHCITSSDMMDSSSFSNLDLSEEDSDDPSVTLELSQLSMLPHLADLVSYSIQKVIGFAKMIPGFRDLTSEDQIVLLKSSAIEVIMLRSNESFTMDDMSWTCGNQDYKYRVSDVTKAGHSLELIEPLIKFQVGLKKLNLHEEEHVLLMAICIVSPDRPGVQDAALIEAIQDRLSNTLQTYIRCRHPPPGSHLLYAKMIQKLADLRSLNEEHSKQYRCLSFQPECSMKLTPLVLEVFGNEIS
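Signal is fluorescence polarization, reporting how far test compounds block the interaction of VDR with the SRC2-3 coregulator peptide after a 2 h room-temperature incubation.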
Numbers without * were called inactive; ? = inconclusive; & = joins results of further samples; [ ] = remark or other dose. % is scaled to controls: 0 for no effect and ±100 for the full control effect; potency is read from the fitted curve at half-maximal effect.

SMILES,VDR inh
CC(CNC(=O)Cn1c(-c2cccs2)cc2cc(Cl)ccc21)c1ccccc1 (stereo unspecified),6%
CCN(CC)S(=O)(=O)c1ccc(C(=O)NCc2nnc(SCC(=O)OC)n2C)cc1,-10%
S=C(Nc1ccc(Br)cc1Cl)N1CCC2(CC1)OCCO2,0%
COc1ccc(OC)c(NC(=O)C(Sc2ccccc2)c2ccccc2)c1 (stereo unspecified),4%
O=C(CSc1nc2scc(-c3ccccc3)c2c(=O)[nH]1)N1CCCCC1,12%
COc1ccc2cc1Oc1ccc(cc1)CC1c3c(cc4c(c3Oc3cc5c(cc3OC)CCN(C)C5C2)OCO4)CCN1C (stereo unspecified),10%
COCCNC(=O)CN(C(=O)CCC(=O)Nc1cc(C)on1)c1ccccc1C,12%
CCc1ccc(OCCSc2nc(-c3cccc(C)c3)nc3cc(=O)[nH]n23)cc1,5%
Cc1ccccc1OCCCC(=O)Nc1ccc(S(=O)(=O)Nc2onc(C)c2C)cc1,-21%
O=C(CNC(=O)c1cccs1)N/N=C/c1ccc(O)cc1O,?
CCc1ccccc1NC(=O)c1cc(S(=O)(=O)N(CC)c2ccccc2)ccc1F,0%
CNC(=S)N(CCCN(C)C)Cc1cc2cc3c(cc2[nH]c1=O)OCCO3,-11%
COc1cc(/C=N/NC(=O)c2ccncc2)ccc1OCC(=O)Nc1ccccc1,12%
Cc1ccnc2c1ccc1c(C)ccnc12,-16%
O=C(NCC(=O)N(Cc1cccs1)C(C(=O)NC1CCCC1)c1ccco1)c1cccs1 (stereo unspecified),0%

The results go on.
SMILES,VDR inh
CCN(C(=O)CSc1nc2ccccc2n1CC(C)C)c1c(N)n(Cc2ccccc2)c(=O)[nH]c1=O,14%
Cc1[nH]c(-c2ccc(F)cc2)cc1C(=O)N1CCN(c2ccc(Cl)cc2)CC1,5%
CCS(=O)(=O)N1CCN(c2ccccc2)CC1,-20%
O=C(N/N=C/c1cccs1)c1cc(C2CC2)nc2ccccc12,-2%
Cc1cccc(NC(=O)c2cccc(S(=O)(=O)Nc3c(C)n(C)n(-c4ccccc4)c3=O)c2)c1,-18%
CCOC(=O)/C=C/C(=O)Nc1ccc(S(=O)(=O)Nc2c(C)cc(C)cc2C)cc1,6%
COc1ccc(OC)c(S(=O)(=O)N2CCN(c3ccccn3)CC2)c1,11%
CC1CCCN(C(=O)COC(=O)Cc2ccc(Cl)cc2)C1 (stereo unspecified),2%
CC[C@H](C)Cc1cn([C@@H](CCCN=C(N)N)C(=O)NCCCCCCCCCCC(=O)N2CCNCC2)nn1,-13%
CCCCC(=O)OC1=CN(Cc2ccccc2)S(=O)(=O)c2ccccc21,22%
O=C(COC(=O)CNC(=O)c1ccc(Cl)cc1Cl)NC1CCCCCCC1,13%
CCS(=O)(=O)N1Cc2ccccc2CC1C(=O)OCC(=O)Nc1ccc(C)cc1 (stereo unspecified),6%
CCC(C(=O)NCCCN1CCOCC1)n1c2ccccc2c2nc(=O)cc(C)n21 (stereo unspecified),-10%
CCOC(=O)N1CCN(C(=S)NC(=O)c2ccc(F)cc2)CC1,23%
Clc1ccc(-c2cn3cc(Cl)ccc3n2)cc1,-12%

Going on with the list:
SMILES,VDR inh
CCC(=O)c1cc2c(cc1NC(=O)C(C)C)OCCO2,-6%
COc1ccc(C(CNC(=O)c2cccnc2SC)N2CCOCC2)cc1 (stereo unspecified),2%
CC1=CCC(C(=O)N/N=C/c2cccs2)C(c2ccc(F)cc2)C1 (stereo unspecified),8%
CCOc1ccc(NC2=NC(C)(C)N=C(N)N2)cc1,41%[activator]
Cc1ccc(C)c(NC(=O)C2CCN(c3cc(C)nc4c(-c5ccc(Cl)cc5)c(C)nn34)CC2)c1,-20%
COc1ccc(C(=O)NC(=O)CSc2nc3nc(C)cc(C)n3n2)cc1,-12%
O=C(O)c1cc(NN=Nc2ccc(Br)cc2)cc([N+](=O)[O-])c1,-17%
O=c1cc(-c2ccc(Br)cc2)[nH][nH]1,-6%
O=C(Nc1ccc(Br)cc1Cl)c1ccc2c(=O)n3c(nc2c1)CCC3,?
CCCCC(=O)NCc1nc2cccnc2n1Cc1ccc(OC)cc1,6%
CC(=O)Nc1ccc(S(=O)(=O)NC(=O)C23CC4CC(CC(C4)C2)C3)cc1,3%
CCn1c(C(O)c2ccc3c(c2)OCO3)nc2ccccc21 (stereo unspecified),-5%
CC(=O)c1cccc(NC(=O)Cc2cccs2)c1,17%
CCCCNS(=O)(=O)CCNCc1ccco1,-28%
COc1ccc(CC(=O)NNC(=O)c2ccc(SCc3cc(F)ccc3F)c([N+](=O)[O-])c2)cc1,6%

Additional results
SMILES	VDR inh
Cc1nn(C)c(NC(=O)c2ccc(Cl)cc2)c1Cl	13%
Cc1ccc(NC(=O)Cn2c(=O)n(Cc3ccco3)c(=O)c3ccc(C(=O)NC4CCCC4)cc32)c(C)c1	-6%
CCOc1ccc(NC(=O)Nc2cccn(Cc3ccccc3)c2=O)cc1	6%
COCc1nnc(NC(C)=O)s1	-5%
C(=N\Nc1nc2ccccc2[nH]1)/c1ccc2c(c1)OCCO2	-16%
O=C(Nc1ccccc1F)c1ccncc1	12%
O=C(O)c1ccc(/C=N/NC(=O)c2ccc(Br)cc2)cc1	-5%
Cc1ccc(-n2c(=O)c3sccc3n(Cc3cc(=O)n4ccccc4n3)c2=O)cc1	-3%&-11%
C[C@H](NC(=O)c1nc[nH]c1C(=O)NC1CCNCC1)C(=O)OC(C)(C)C	-6%
COc1ccccc1CCNC(=O)CNC(=O)c1ccc2ccccc2c1	-25%&2%
C=CCn1c(SCC(=O)c2cc(C)n(C(C)COC)c2C)nc2sc(C)c(C)c2c1=O (stereo unspecified)	1%
Cn1nnnc1SCC(=O)Nc1ccccc1Br	12%
CC(C)C1=NN2C(=N)CC(=O)N=C2S1	?
COc1ccc(CCC(=O)N2CCc3c([nH]c4ccccc34)C2c2ccc(F)cc2)cc1 (stereo unspecified)	-27%
Cc1sc2nc(SCC(=O)NCCO)n(-c3ccccc3)c(=O)c2c1C	-20%

(list continues)
SMILES	VDR inh
CC1CCN(c2ccc(-c3nc(C(C)C)no3)cc2[N+](=O)[O-])CC1	16%
CC(O)COc1ccc(/C(=N/O)c2ccccc2)cc1 (stereo unspecified)	-5%
Cc1cccc(C)c1NC(=O)CN(C)C(=O)CC1CC2CCC1C2 (stereo unspecified)	-1%
Cc1ccc(NC(=O)N2CCC(n3c(C)nc4cccnc43)CC2)c(Cl)c1	8%
CCOCCCNC(=O)CN1C(=O)COc2ccc(S(=O)(=O)N3CCCCCC3)cc21	11%&-10%
CN1C(=O)/C(=C/c2ccccc2OCc2cccc(F)c2)NC1=S	-5%
CSC1=NCCN1C(=O)Cc1ccc(Cl)cc1	2%
CC(=O)Oc1c(-c2ccc(Br)o2)oc2ccccc2c1=O	-3%
CC1(C)Cc2c(C#N)c(SCC(=O)c3ccccc3)nc(N3CCOCC3)c2CO1	?
Cc1ccc(S(=O)(=O)NN2C(=O)c3ccccc3NC2c2ccccc2O)cc1 (stereo unspecified)	-11%
NC(N)=NN=C1CCC(c2ccccc2)CC1 (stereo unspecified)	-1%
CC(C)(C)OC(=O)CNC(=O)c1[nH]cnc1C(=O)Nc1ccc(Cl)cc1	-8%
Cc1c(F)cccc1NC(=O)CCCCCC1NC(=O)NC1C (stereo unspecified)	-5%
CCCc1c(C(=O)Nc2ccc(OC)cc2)cnn1-c1ccccc1	-12%
CSc1nc(N)nc2c1ncn2CC(=O)NCC1CCCO1 (stereo unspecified)	-11%

Fetched one by one from the entries so far (three):
SMILES	VDR inh
CC(O)COc1ccc(/C(=N/O)c2ccccc2)cc1 (stereo unspecified)	-5%
CCN(CC)S(=O)(=O)c1ccc(C(=O)NCc2nnc(SCC(=O)OC)n2C)cc1	-10%
CCC(C(=O)NCCCN1CCOCC1)n1c2ccccc2c2nc(=O)cc(C)n21 (stereo unspecified)	-10%

Of the compounds above, 2 contain a COOH group.
SMILES	VDR inh
O=C(O)c1cc(NN=Nc2ccc(Br)cc2)cc([N+](=O)[O-])c1	-17%
O=C(O)c1ccc(/C=N/NC(=O)c2ccc(Br)cc2)cc1	-5%

Remaining list, next part:
SMILES	VDR inh
CCS(=O)(=O)c1ccc2c(c1)N(S(C)(=O)=O)CC(C(=O)NCCOC)O2 (stereo unspecified)	-18%
O=C(NNC(=O)c1cc2cc3ccccc3nc2s1)c1cccc(Cl)c1	9%
Cc1cc(C)c(S(=O)(=O)c2cccc(C)c2C)c(=O)[nH]1	-2%
Cc1ccc(C(=O)OCc2cn(-c3ccccc3)nn2)cc1	0%
COC(=O)c1sccc1-n1cccc1C(=O)C(=O)Nc1ccc(F)cc1	3%
Cc1ccc(C(=O)NC(N(C)C)C(Cl)(Cl)Cl)cc1 (stereo unspecified)	-9%
CCOc1ccccc1NC(=O)c1c(NC(=O)C(C)Oc2cccc(Cl)c2)sc2c1CCCCC2 (stereo unspecified)	-3%
CC(=O)C[C@H](O)CC(=O)[C@H]1OC(=O)CCCCCc2ccccc21	3%
CC(C)CCC[C@@H](C)[C@@H]1CC[C@H]2C3=CC=C4CC(O)CC[C@]4(C)[C@H]3CC[C@@]21C (stereo partly specified)	28µM*
CN(c1ccc(OCC(=O)OCC(=O)Nc2ccccc2F)cc1)S(=O)(=O)c1cccs1	0%
O=C(CSc1nc2ccc(N3CCOCC3)cc2c(=O)n1CCc1ccccc1)NCC1CCCO1 (stereo unspecified)	-31%
COC1=C/C(=C/c2c(N)n3nc(CC(=O)N4CCOCC4)sc3nc2=O)C=CC1=O	?
NCCOc1ccccc1Cc1ccccc1	20%
CCCCCCCC1=CC2=C(Cl)C(=O)C(C)(OC(C)=O)C(=O)C2=CN1C (stereo unspecified)	71µM*
COc1ccc(C(C)=O)cc1CSc1nc2ccccc2c(=O)n1-c1cccc(C)c1	10%

The list goes on:
SMILES	VDR inh
CCOC(=O)c1cnc2c(C(F)(F)F)cccc2c1N1CCOCC1	-5%
CN1C(=O)CN2CCc3ccccc3C2c2cc(Cl)ccc21 (stereo unspecified)	-11%
CC(C(=O)NC1CCCC1)N(C(=O)Cn1nnc(-c2ccc(F)cc2)n1)c1ccccc1F (stereo unspecified)	-3%
O=S(=O)(c1ccc2c(c1)OCCO2)N1CCN(c2nc(-c3ccccc3)nc3ccccc23)CC1	9%
COC(=O)c1ccc(-n2c(C)cc(-c3csc(NC(=O)c4ccc(S(=O)(=O)N(C)C)cc4)n3)c2C)cc1	-15%
COc1ccc(S(=O)(=O)NCCSCc2ccccc2C)cc1Br	-16%
Cc1ccc(C(=O)COC(=O)CNS(=O)(=O)c2ccccc2)cc1[N+](=O)[O-]	3%
CC(=O)c1c(C)c2c(n1CCN(C)C)CCCC2	-3%
Cc1cc(N)n2nc(-c3ccc(C(C)(C)C)cc3)cc2n1	-7%
O=C(CSc1nc2ncccc2[nH]1)Nc1c(F)cc(F)cc1Br	-2%
Cc1ccc2c(c1)c1c(c(=O)n(-c3cccc(Cl)c3)c(=O)n1CC(=O)Nc1c(C)cccc1C)n2C	7%
CSCC[C@H](NC(=O)c1cccc(S(=O)(=O)N2CCCCCC2)c1)c1nc2ccccc2[nH]1	12%
CCN(CC)CCn1c(=N)n(CC(O)COc2ccccc2)c2ccccc21 (stereo unspecified)	1%
O=C(O)c1nccnc1C(=O)Nc1ccc(Cl)cc1Cl	-10%
CN(CC(=O)Nc1ccccc1Cl)C(=O)COC(=O)/C=C/c1cccc(C(F)(F)F)c1	-6%

The list goes on; it opens with the 6 that closed the last part.
SMILES	VDR inh
O=C(CSc1nc2ncccc2[nH]1)Nc1c(F)cc(F)cc1Br	-2%
Cc1ccc2c(c1)c1c(c(=O)n(-c3cccc(Cl)c3)c(=O)n1CC(=O)Nc1c(C)cccc1C)n2C	7%
CSCC[C@H](NC(=O)c1cccc(S(=O)(=O)N2CCCCCC2)c1)c1nc2ccccc2[nH]1	12%
CCN(CC)CCn1c(=N)n(CC(O)COc2ccccc2)c2ccccc21 (stereo unspecified)	1%
O=C(O)c1nccnc1C(=O)Nc1ccc(Cl)cc1Cl	-10%
CN(CC(=O)Nc1ccccc1Cl)C(=O)COC(=O)/C=C/c1cccc(C(F)(F)F)c1	-6%
CCc1nn(CC(=O)N2CCC(C(N)=O)CC2)c(=O)c2cc3occc3n12	8%
Cc1ccc(CN2CCN(Cc3ccccc3)C(CCO)C2)s1 (stereo unspecified)	6%
CCCC(=O)Nc1cccc(Oc2ccc3c(c2)C(=O)NC3=O)c1	-15%
CC(=O)NC1CC2CCCC(C1)N2C(=O)Nc1cccc(C(C)=O)c1 (stereo unspecified)	-8%
O=C(CSc1nc2ccccc2o1)Nc1nc2c(s1)CCCC2	18%
COCCn1c(-c2ccc(C)cc2)nc2c(c(=O)c3ccccc3n2C)c1=O	-1%
CCCc1nc2sc3c(SCC(=O)NCc4ccco4)ncnc3c2c2c1CCC2	-30%
COc1ccc(N2CCOCC2)c(NC(=O)c2cccnc2)c1	8%
CC(C)N1CC(C(=O)O)CC1=O (stereo unspecified)	-9%
COc1ccccc1NC(=O)Oc1ccc(C(C)=O)cc1	-4%
Cc1ccccc1OCC(=O)N/N=C/c1ccco1	9%
CC1CN(c2ccccc2)CCN1Cc1nc(Cc2ccccc2)no1 (stereo unspecified)	10%
Cc1ccc(C)n1-c1ncn[nH]1	2%
Cc1csc2nc(CNS(=O)(=O)c3ccc4c(c3)CCCC4)cn12	-15%
COc1ccccc1NC(=O)Cc1nnc(SCC(=O)NC2CCCCC2C)n1C (stereo unspecified)	-17%
CC(CN(C)Cc1nc(Cc2cccc(C(F)(F)F)c2)no1)CN1CCCC1 (stereo unspecified)	16%
O=C(O)CCN1C(=O)c2ccc(NC(=O)Cc3ccc(Cl)cc3)cc2C1=O	0%

An excerpt; the hit share may differ from the screen's.
